Calb biofilm kill: mixture kills Candida albicans biofilm cells. C. albicans biofilm persisters + clotrimazole, fluorescence viability; primary screen in compound mixtures of four per well. AID 1242. inhibition, % at 7.6 µM. actives 0.02% (n = 120,000);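 active means inhibition above 30.3% in the primary screen of four-compound pools, then above 30% when the compound was retested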;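 further: compounds exposed to preformed 24 h biofilms for 48 h; the number belongs to the whole pool; some results filed as inactive read as strong as hits; inactives centre near 12; 0% = biofilm with clotrimazole alone and 100% = kill control; retested singly at about 60 µM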
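Assay system: C. albicans biofilms / Medium: RPMI/MOPS medium, pH 7.0 / Schedule: biofilm formation 24 h, compound exposure 48 h, 37 °C / Measured by: Alamar Blue fluorescence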
Starred values were filed as active, the others as inactive. The list is partial; rates above refer to the full screens.

The opening 2 compounds as a preview:
nr	SMILES	Calb biofilm kill
1	COc1cccc(CN(C)CC(=O)Nc2ccccc2N2CCOCC2)c1OC	12
2	COc1ccc(C(=O)N2N=C3CC(C)(C)OCC3C2c2ccccc2)cc1 (configuration not stated)	20

Main list, repeating the preview:
nr	SMILES	Calb biofilm kill
1	COc1cccc(CN(C)CC(=O)Nc2ccccc2N2CCOCC2)c1OC	12
2	COc1ccc(C(=O)N2N=C3CC(C)(C)OCC3C2c2ccccc2)cc1 (configuration not stated)	20
3	CCOC(=O)c1sc2nc(C)nc(SCC(N)=O)c2c1C	19
4	COc1cc(SC)ccc1C(=O)NCCN1CCOCC1	8
5	O=c1nc(Nc2ccc(Br)cc2)sc2ccc([N+](=O)[O-])cc12	14
6	Cc1ccc(C)c2[nH]c(=O)c(CN(Cc3cccnc3)C(=S)NCc3ccco3)cc12	17
7	O=C(CCCc1nc2ccccc2s1)NCc1ccccc1	18
8	C=CCN1c2ccccc2[C@]23C[C@@H](C(=O)OC)N(C(=O)C4CCC4)C2=NC(C(=O)OC)=C(C(=O)OC)[C@H]13	11
9	COc1ccc(C(=O)Nc2ccc(C)c(S(=O)(=O)N3CCCCCC3)c2)cc1	15
10	NC(=O)[C@@H]1CC2(CC(c3cccc(NC(=O)[C@H]4CCC(=O)N4)c3)=NO2)CN1C(=O)c1ccc(Cl)cc1 (some centres not stated)	14
11	COc1ccc(OC)c(N=C(N)N=C(N)N)c1	14
12	COc1cccc(/C=N/NC(=O)CSc2ccccc2C)c1OC	12
13	O=S(=O)(NCCN1CCOCC1)c1cccs1	5
14	CC(C)(C)CC(C)(C)NC(=O)c1ccccc1	13
15	CCCCCCn1c(=O)c(Cc2ccccc2)c(O)c2ccccc21	16
16	COc1ccc(C(=O)n2c(C)c(CCO)c(=O)n2C)cc1	3
17	O=C(Cn1nc(-c2ccccc2)ccc1=O)Nc1ccc(NC(=O)c2ccccn2)cc1	17
18	C#CCn1c(-c2cccs2)nc2ccccc21	18
19	Cc1cc(C)n(-c2nnc(C)n2/N=C/c2ccc(O)cc2)n1	18
20	CS(=O)(=O)N(CC(=O)Nc1cccc([N+](=O)[O-])c1)c1ccccc1	5
21	O=c1[nH]c(SCc2ccc(Cl)cc2)nc2ccccc12	14
22	O=C(CCC(=O)N(CC(=O)NC1CCCCC1)Cc1cccs1)Nc1nccs1	13
23	COc1ccc(OC)c(NC(=O)c2ccc(Cl)cc2)c1	19
24	Cc1nc(N2CCOCC2)c2c(C)c(C(=O)Nc3ccc(C(F)(F)F)cc3)sc2n1	15
25	COc1c(Cl)cc(-c2noc(C)c2C(=O)NCc2ccc3c(c2)OCO3)cc1Cl	18
26	NC(=S)NC(=O)c1ccccc1	18
27	Nc1cc(N)nc(SCC(=O)Nc2ccc(Br)cc2Cl)n1	5
28	N/C(=N\OC(=O)CCn1cccc(C(F)(F)F)c1=O)c1ccc(Cl)cc1	19
29	COc1ccc(CN(CC2CCCO2)C(=O)CN2C(=O)COc3ccccc32)cc1OC (configuration not stated)	-12
30	CCC(C)c1ccc(C2C3=C(Nc4nc(N)[nH]c(=O)c42)c2ccccc2C3=O)cc1 (configuration not stated)	10

The list goes on, starting with the last five of the part before.
nr	SMILES	Calb biofilm kill
26	NC(=S)NC(=O)c1ccccc1	18
27	Nc1cc(N)nc(SCC(=O)Nc2ccc(Br)cc2Cl)n1	5
28	N/C(=N\OC(=O)CCn1cccc(C(F)(F)F)c1=O)c1ccc(Cl)cc1	19
29	COc1ccc(CN(CC2CCCO2)C(=O)CN2C(=O)COc3ccccc32)cc1OC (configuration not stated)	-12
30	CCC(C)c1ccc(C2C3=C(Nc4nc(N)[nH]c(=O)c42)c2ccccc2C3=O)cc1 (configuration not stated)	10
31	O=C(CCCCCNC(=O)c1ccccc1)N/N=C/c1ccco1	-2
32	O=C(CN1CCN(C(c2ccccc2)c2ccccc2)CC1)N1CCN(c2ccccc2)CC1	16
33	O=C(COc1ncnc2ccccc12)Nc1ccc(Cl)c(S(=O)(=O)N2CCOCC2)c1	13
34	CCCCCC(=O)N/N=C(\C)c1ccc(N2CCCCC2)cc1	10
35	CC(C)OP(=O)(OC(C)C)C(Nc1ccc([N+](=O)[O-])cc1)c1cccc([N+](=O)[O-])c1 (configuration not stated)	26
36	Cc1nnc(-c2ccccc2)nc1N(C)C	7
37	COc1ccccc1NC(=S)N=Nc1c(O)[nH]c2ccc(Br)cc12	19
38	CC1=NN(c2nc(-c3ccccc3)cs2)C(=O)C1N=Nc1ccccc1 (configuration not stated)	15
39	N#CCCN(C(=O)COC(=O)C1CCN(S(=O)(=O)c2cccs2)CC1)c1ccccc1	13
40	CCn1ncc(CNC(=O)C2(C)CC2(Br)Br)c1C (configuration not stated)	17
41	CC(C)(O)C(=O)NNC(=S)Nc1cccc(C(F)(F)F)c1	15
42	O=C(O)CN=C1NC2(CCCCC2)Cc2ccccc21	6
43	Cc1cc(C(=O)NCC(=O)OCC(=O)NCCc2ccccc2)ccc1[N+](=O)[O-]	7
44	CCOC(=O)N1CCN(C(=O)CNC(=O)Cn2cnc3ccccc3c2=O)CC1	14
45	CN(C)c1nc(=Nc2cccc(Cl)c2)ss1	16
46	COc1cc(/C=c2\sc3nc(=O)c(-c4ccccc4)nn3c2=O)ccc1OCCC(C)C	6
47	COc1cc(C(=O)c2ccccc2)c([N+](=O)[O-])cc1OC	18
48	C#CCSc1nnc(-c2ccc(C)cc2)o1	8
49	Cc1c(C2C(C#N)=C(N)N(c3ccccc3C#N)C3=C2C(=O)CCC3)cnn1C (configuration not stated)	14
50	Cc1ccc(C)n1NC(=O)c1ccccc1[N+](=O)[O-]	1
51	CCCCCC(=O)Nc1cccc(C2=NOC3(C2)C[C@@H](C(N)=O)N(C(=O)c2ccc(OC)cc2)C3)c1 (some centres not stated)	17
52	Cc1ccc(NC(=O)COc2ccc(CCO)cc2-n2nc3ccccc3n2)cc1C	6
53	Cc1ccc(CNS(=O)(=O)NCc2cccs2)cc1	6
54	O=C(Cc1ccc(-c2ccccc2)cc1)NNC(=S)NCc1ccco1	9
55	NC(=S)Nc1ccc(Cl)cc1Cl	19
56	CC(C)(C)NC(=O)NC(=O)COC(=O)CNC(=O)c1cc(Cl)cc([N+](=O)[O-])c1	14
57	O=C(N/N=C/c1cc2c(cc1[N+](=O)[O-])OCO2)c1cccnc1	25
58	CCOC(=O)c1cc(C)n(-c2ccccc2)c1C	-89
59	Cc1ccn2c(C(=O)NN=C3CCN(C)CC3)c(C)nc2c1	12
60	Cc1ccc(C(=O)N/N=C\c2cc(Br)c(Br)o2)cn1	27
61	NC(=O)c1nnn(-c2ccc([N+](=O)[O-])cc2)c1-c1ccccc1	-1
62	CC(C)c1ccc(CNC(=O)C(=O)Nc2nccs2)cc1	8
63	COc1cccc(/C=C/C(=O)NNC(=O)CCN2CCN(Cc3ccccc3)CC2)c1	9
64	Fc1ccc(NC(=S)Nc2ccc3nccnc3c2)cc1	22
65	CCOC(=O)C1CCCN(C2CCN(Cc3nc(-c4ccccc4)no3)CC2)C1 (configuration not stated)	5
66	O=[N+]([O-])c1ccc2nc(NCCCO)nc(-c3ccccc3)c2c1	16
67	CCOC(=O)CNC(=O)CSc1nnc(-c2c[nH]c3ccccc23)n1CC	-11
68	Cc1onc(-c2ccccc2)c1C(=O)N1CCN(c2ncccn2)CC1	24
69	CCCCNC(=O)c1cc(C)no1	3
70	CN1CCNC(=O)C1CC(=O)NCC1(c2ccccc2)CCCCC1 (configuration not stated)	30
71	O=C(N/N=C/c1ccncc1)c1ccc(NS(=O)(=O)c2cccs2)cc1	22
72	CC(=O)c1ccc(NC(=O)C(C)N(C)CC(=O)Nc2ccc(Cl)cc2)cc1 (configuration not stated)	25
73	CC(C)CNC(=O)c1cccc(NC(=O)C(C)Oc2ccccc2)c1 (configuration not stated)	-11
74	O=C(CN1C(=O)c2ccccc2C1=O)Nc1ccc(Cl)cn1	12
75	CCc1nnc(NC(=O)/C=C/c2cccs2)s1	8
76	Cc1ccc(CSC2=NCCN2C(=O)c2ccc([N+](=O)[O-])cc2)cc1	0
77	S=C(NCc1ccc2c(c1)OCO2)Nc1ccc(-c2nc3ccccc3[nH]2)cc1	15
78	NNC(=O)C(=O)/C=C1\NC2(CCCC2)Cc2ccccc21	25
79	O=c1[nH]c2ccccc2nc1-c1ccc(Cl)cc1	26
80	Cc1nc(Nc2ccccc2)sc1C(=O)Nc1ccccc1	14
81	COC(=O)C1CSC(C)(C)C(=O)N1 (configuration not stated)	15
82	Cc1nc(S(=O)(=O)N2CCN(C3c4ccccc4-c4ccccc43)CC2)cn1C	5
83	O=C(Nc1cccnc1)c1ccc(NS(=O)(=O)c2cccc([N+](=O)[O-])c2)cc1	9
84	O=c1c2ccccc2nc(/C=C/c2c[nH]c3ccccc23)n1CCO	26
85	CC(=O)c1sc(NC(=O)COc2c(C)cc(Cl)cc2C)nc1C	16
86	COc1ccc(-c2csc(NC(=O)CN3C(=O)CCC3=O)n2)cc1OC	3
87	O=C(Cc1ccc(Br)cc1)N1CCN(c2ccccn2)CC1	18
88	CC1(C)Nc2ccccc2C(=O)N1NC(=O)c1ccccc1	9
89	CCOCC(=O)OCC(=O)NC12CC3CC(CC(C3)C1)C2	5
90	COc1ccc(OC)c(-c2cnc(OC(C)(C)C)nc2OC(C)(C)C)c1	9

(cont.)
nr	SMILES	Calb biofilm kill
91	Cc1ccc(C(C)C)cc1OCC(=O)N/N=C/c1ccc2c(c1)OCCO2	-17
92	O=C(Oc1ccccc1C(=O)Nc1ccccc1)c1ccc(Br)c([N+](=O)[O-])c1	11
93	CCc1nc2sc(C#N)c(N)c2c2c1CCCC2	8
94	Cc1oc(-c2ccccc2Cl)nc1CN1CCCCC1CO (configuration not stated)	2
95	Cc1c(NC(=O)c2cc(-c3cccs3)nc3ccccc23)c(=O)n(-c2ccccc2)n1C	13
96	COc1ccc(CC2(CO)CCN(S(=O)(=O)c3c(C)nn(C)c3Cl)CC2)cc1	5
97	O=C(CCCn1nnc2ccccc2c1=O)N[C@@H](Cc1ccccc1)C(=O)O	13
98	O=C(O)CCSc1ccccn1	18
99	Cc1ccc(C(=O)OCC(=O)Nc2ccc3[nH]c(=O)[nH]c3c2)cc1[N+](=O)[O-]	7
100	NC(=S)Nc1ccccc1Br	-6
101	Cc1ccc(S(=O)(=O)NNC(=S)NC(C)(C)C)cc1	12
102	CCOC(=O)N/N=C(\C)c1cccs1	18
103	O=C(NN=C1CCC(=NNC(=O)c2cccnc2)CC1)c1cccnc1	34
104	CCOC(=O)Cc1csc(NC(=O)COc2ccc(C)cc2)n1	22
105	CCCCCCCCSc1n[nH]c(N)n1	16
106	Clc1ccc(N2CCN(/N=C/c3ccncc3)CC2)cc1	12
107	COc1cc(/C=N/Nc2ccc(S(N)(=O)=O)cc2)cc(OC)c1OC	7
108	COC(=O)c1sccc1NC(=O)c1ccccc1[N+](=O)[O-]	14
109	CC(C(=O)N1CCc2ccccc21)N1CCN(c2ccccn2)CC1 (configuration not stated)	-15
110	CCOC(=O)Cc1cc(=O)n2[nH]c(C)c(-c3ccccc3OC)c2n1	-7
111	O=C(COC(=O)c1sc2ccccc2c1Cl)NC1CCCCC1	16
112	COc1cc(/C=C/C(=O)OCC(=O)NC2CC2)cc(S(=O)(=O)N2CCc3ccccc32)c1OC	16
113	CSc1ncccc1C(=O)Nc1nnc(C2CC2)s1	-2
114	CCC(=O)NC(Nc1sc2c(c1C(=O)OC)CCC2)C(Cl)(Cl)Cl (configuration not stated)	16
115	CCCCC(=O)NC1=C(C(=O)OC)SCC1	14
116	O=C(COC(=O)c1ccc(O)cc1)Nc1ccccc1-c1ccccc1	5
117	Cc1ccc(-c2cc(Cc3ccccc3)c(=O)[nH]n2)cc1	10
118	COc1cccc(OCc2cc(/C=N/Nc3ccc(C(=O)O)cc3)ccc2OC)c1	27
119	CCC(C)(C)NC(=O)CN(C(=O)c1csnn1)c1cccc2c1CCCC2	8
120	O=C(/C(C=Nc1cc2c(oc1=O)CCCC2=O)=C(\O)c1ccccc1)c1ccccc1	8
121	COc1ccc(NC(=O)C2CCC(CNS(=O)(=O)c3cccs3)CC2)cc1 (configuration not stated)	-5
122	CCCCOC(=O)c1ccc(NC(=O)C(=O)NCc2ccccn2)cc1	26
123	CCN(CCO)Cc1csc2cc(C)ccc12	8
124	Cc1ccc2nc(SCC(=O)Nc3cc([N+](=O)[O-])ccc3F)[nH]c2c1	19
125	CCOC(=O)c1c(/N=C/C2=C(O)CCCC2=O)sc(C)c1C	15
126	CNc1nc(-c2ccc3c(c2)CCN3C(=O)c2ccccc2C)cs1	8
127	CCOC1=C/C(=C/c2c(N)n3nc(-c4ccccc4)sc3nc2=O)C=CC1=O	9
128	Cc1ccc([N+](=O)[O-])cc1N(CC(=O)Nc1ccc(S(=O)(=O)Nc2cccc(C(F)(F)F)c2)cc1)S(C)(=O)=O	6
129	O=C(N/N=C1/CC(c2ccccc2)Oc2ccccc21)C1CC1 (configuration not stated)	12
130	CCCCP(=O)(CCCC)CCP(=O)(c1ccccc1)c1ccccc1	16
131	Cc1cc2ccccn2c1C(=S)NC(=O)c1ccccc1	-5
132	Cc1[nH]c2ccccc2c1C(=O)COC(=O)Cn1c(C)nc2ccccc21	4
133	c1ccc2c(c1)nc(Nc1ccc(N3CCCCC3)cc1)c1nncn12	7
134	COc1ccccc1/C=C(\NC(=O)c1ccc(OC)c(OC)c1)C(=O)Nc1cccc([N+](=O)[O-])c1	13
135	Cc1ccc(CSc2nc3ccncc3n2CC(=O)Nc2cc(C)cc(C)c2)cc1	15
